HNF4A DNA FP = change in binding of human HNF4 alpha to DNA; P41235; HNF4a-FITC DNA binding, fluorescence polarization, 1 h; activity change, % at 10 µM; 360,000 compounds, 0.3% hits; AID 1224865; in the data active = activity change above about 30%, passing the limit was not always enough;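 note: controls were the assay level and a saturating level of protein; the project sought stronger binding though the title names inhibitors; some compounds called inactive have numbers as strong as hits; positive values seem to mean higher polarization but the record does not say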
Target sequence (P41235 whole entry, looked up): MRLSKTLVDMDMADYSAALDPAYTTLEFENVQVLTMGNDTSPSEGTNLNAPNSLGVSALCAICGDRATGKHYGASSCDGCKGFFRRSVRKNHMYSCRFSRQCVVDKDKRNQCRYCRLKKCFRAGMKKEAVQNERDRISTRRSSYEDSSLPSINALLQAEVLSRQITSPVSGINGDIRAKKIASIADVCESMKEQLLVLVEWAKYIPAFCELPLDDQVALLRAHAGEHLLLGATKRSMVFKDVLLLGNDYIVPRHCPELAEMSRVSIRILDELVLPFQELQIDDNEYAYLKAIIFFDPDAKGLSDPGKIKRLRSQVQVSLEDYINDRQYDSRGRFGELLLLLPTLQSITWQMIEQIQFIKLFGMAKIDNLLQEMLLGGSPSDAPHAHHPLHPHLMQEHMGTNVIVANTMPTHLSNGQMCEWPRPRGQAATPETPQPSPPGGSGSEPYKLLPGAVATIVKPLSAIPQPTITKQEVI
rRNA inh HTS = inhibits bacterial ribosomal RNA function over humanized ribosomes. 350,000 compounds, 1.6% hits. AID 720706. E. coli WT GFP vs humanized-ribosome RFP mutants, fluorescence, 24 h; hits give low values; DMSO median 0, no signal -100. GFP signal change (wild-type ribosome), % (test concentration not listed);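 active = significant combined selectivity score with lowered wild-type GFP, culture density cut under 30%, mutant RFP and density less affected; inactive = any of these conditions unmet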; note: one replicate is shown; some compounds called inactive have numbers as strong as hits
Vif A3G = HIV-1 Vif–A3G interaction blockers – biochemical, TR-FRET, GST-Vif 1-94, biotin-A3G peptide, dose response retest, primary screen (AID 1117319) | TR-FRET GST-Vif / biotin-A3G peptide binding; higher % means a stronger effect; test concentration not given here; strong numbers were not always called active | inhibition, %; hits with a dose series show IC50 in µM | 260,000 compounds, 0.57% hits;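 active = above the screen mean plus three standard deviations and confirmed in dose response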;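 note: Vif residues 1-94 fused to GST binding biotinylated APOBEC3G peptide 110-148; 0% = full assay without inhibitor and 100% = GST in place of GST-Vif; retest series ran down from 100 µM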
FGF22 binding = binders of recombinant human FGF22 by thermal shift; AID 651658; SYPRO orange fluorescence; percent of sucrose octasulfate shift, DMSO zero; 340,000 compounds, 1.5% hits; Q9HCT0; calls only at 9.99 µM;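 active = melting point raised past a set limit in the mean and every replicate; three in four hits are not shown here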
Ecoli growth = blocks Escherichia coli growth. OD600 absorbance (test concentration not listed). 330,000 compounds, 0.21% hits. OD600, 23 h; hits give low values. AID 1053175;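 active = OD600 absorbance below the run mean of sample wells minus 3.6 SD, in any replicate, cut at about 0.56 in these data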;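 note: stock transfer was 300 nL into about 60 µL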
MLL AF4-AF9 inh = MLL-AF4/AF9 protein interaction inhibition. inhibition, % at 10 µM. 350,000 compounds, 0.47% hits. P42568. AID 651704. AlphaScreen, biotin-AF4 peptide binding to FLAG-AF9;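 active = every replicate reaching a set inhibition limit, whatever the replicate mean, cut at about 25% in these data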;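 note: 0% = plate neutral control median and 100% = total signal loss; the record names both 10 and 1 µM as test concentration; the first replicate is given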
Target sequence (P42568 whole entry, looked up): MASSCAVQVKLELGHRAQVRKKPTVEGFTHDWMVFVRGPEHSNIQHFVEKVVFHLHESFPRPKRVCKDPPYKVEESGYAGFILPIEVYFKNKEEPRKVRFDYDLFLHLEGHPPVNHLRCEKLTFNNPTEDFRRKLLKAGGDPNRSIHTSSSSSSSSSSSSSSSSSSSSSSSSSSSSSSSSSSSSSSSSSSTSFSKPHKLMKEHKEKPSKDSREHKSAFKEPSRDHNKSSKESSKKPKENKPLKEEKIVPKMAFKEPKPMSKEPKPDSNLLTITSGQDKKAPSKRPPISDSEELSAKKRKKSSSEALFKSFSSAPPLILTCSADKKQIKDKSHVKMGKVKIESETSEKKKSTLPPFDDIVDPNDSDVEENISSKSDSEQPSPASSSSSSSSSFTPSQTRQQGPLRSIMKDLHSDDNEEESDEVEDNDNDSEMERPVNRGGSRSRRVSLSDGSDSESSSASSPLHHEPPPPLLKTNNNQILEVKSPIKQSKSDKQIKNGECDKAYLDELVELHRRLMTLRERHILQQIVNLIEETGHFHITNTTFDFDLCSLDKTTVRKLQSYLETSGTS
ALR inh = inhibitors of human sulfhydryl oxidase ALR; inhibition, % (no concentration beside the values); purified ALR, DTT oxidation, H2O2 HRP-luminol luminescence; P55789; AID 485317; 290,000 compounds, 3.8% hits;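 active = mean and each replicate at 75% or more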;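 note: stock transfer was 7.5 nL into about 7.5 µL; 0% = neutral wells and 100% = wells with inactivated enzyme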
rRNA inh HTS OD600 = second read-out of rRNA inh HTS, no call of its own (marks repeat the call); OD600 change, %; measured here: OD600 growth;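 optical density of the mix in the first replicate; 0 = DMSO median and -100 = no signal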
rRNA inh HTS RFP = second read-out of rRNA inh HTS, no call of its own (marks repeat the call); RFP signal change, %; measured here: RFP humanized mutant strains;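 first replicate; 0 = DMSO median and -100 = no signal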
An asterisk follows results filed as active; i = inactive; x = not tested or not shown; & = joins results of further samples. These rows are one share of the data; the hit share may differ from the screen's.

SMILES | HNF4A DNA FP | rRNA inh HTS | rRNA inh HTS OD600 | rRNA inh HTS RFP | Vif A3G | FGF22 binding | Ecoli growth | MLL AF4-AF9 inh | ALR inh
O=C(Nc1ccc2c(c1)[C@@H]1C[C@H](CC(=O)N3CCc4ccccc4C3)O[C@H](CO)[C@@H]1O2)Nc1ccccc1F | x | -3.2 | -14.2 | 3.7 | x | i | x | -3.3 | x
O=C(COC(=O)CN1C(=O)c2ccccc2C1=O)Nc1ccc(S(=O)(=O)N2CCCC2)cc1 | -1.2 | x | x | x | 19.9% | x | 0.742 | x | 1.2
COC(=O)c1ccc(N2CCOCC2)c(NC(=O)c2cc3ccccc3o2)c1 | -7.6 | 3.4 | 6.7 | 0.7 | x | i | x | 0.6 | x
Cc1csc2nc(O)c(C(=O)NCc3ccc4c(c3)OCO4)c(=O)n12 | -2.3 | 3.8 | 3.1 | -1.0 | -8.6% | i | 0.625 | -0.3 | x
CC(=O)N(C)C[C@H]1Oc2cc(C#Cc3ccccn3)ccc2S(=O)(=O)N([C@H](C)CO)C[C@H]1C | x | 0.9 | 6.4 | -2.3 | x | i | x | -8.3 | x
CCc1cccc2c(C(=O)CN3C(=O)NC(C)(c4cccc5ccccc45)C3=O)c[nH]c12 (centres undefined) | 3.8 | -3.6 | 4.3 | 21.0 | -1.9% | i | 0.72 | -0.2 | -5.3
CCCCOC(=O)Nc1ccccc1C(N)=O | -0.7 | x | x | x | 14.9% | x | 0.696 | x | -1.5
C[C@@H]1CN([C@H](C)CO)C(=O)c2cc(C#CCN(C)C)cnc2O[C@H]1CN(C)C(=O)c1ccc2c(c1)OCO2 | x | 5.4 | 9.6 | -3.0 | x | i | x | 0.7 | x
CCCN(CC(=O)Nc1cc(Cl)cc(Cl)c1)CC(=O)Nc1ccc(F)c(F)c1F | -2.1 | -9.8 | -6.1 | 3.1 | 0.8% | i | 0.681 | 1.1 | -2.5
Cn1c(=O)[nH]c(=O)c2c1nc(SCC(=O)O)n2Cc1ccccc1 | -0.8 | 21.8 | 14.2 | 0.0 | -4.7% | i | 0.685 | -10.9 | 0.8
COc1cc2cc(C(=O)NC(C)c3cccc4ccccc34)c(N)nc2cc1OC (centres undefined) | -1.4 | -50.6 | -79.7 | -12.6 | x | i | x | -15.5 | x
COc1ccc(NC(=O)CN(C)C(=O)C(C)N2C(=O)c3ccccc3C2=O)cc1 (centres undefined) | -1.6 | -0.8 | 1.2 | -1.6 | 2.2% | i | 0.664 | 0.6 | x

The last four entries of the section above lead into the next.
SMILES | HNF4A DNA FP | rRNA inh HTS | rRNA inh HTS OD600 | rRNA inh HTS RFP | Vif A3G | FGF22 binding | Ecoli growth | MLL AF4-AF9 inh | ALR inh
CCCN(CC(=O)Nc1cc(Cl)cc(Cl)c1)CC(=O)Nc1ccc(F)c(F)c1F | -2.1 | -9.8 | -6.1 | 3.1 | 0.8% | i | 0.681 | 1.1 | -2.5
Cn1c(=O)[nH]c(=O)c2c1nc(SCC(=O)O)n2Cc1ccccc1 | -0.8 | 21.8 | 14.2 | 0.0 | -4.7% | i | 0.685 | -10.9 | 0.8
COc1cc2cc(C(=O)NC(C)c3cccc4ccccc34)c(N)nc2cc1OC (centres undefined) | -1.4 | -50.6 | -79.7 | -12.6 | x | i | x | -15.5 | x
COc1ccc(NC(=O)CN(C)C(=O)C(C)N2C(=O)c3ccccc3C2=O)cc1 (centres undefined) | -1.6 | -0.8 | 1.2 | -1.6 | 2.2% | i | 0.664 | 0.6 | x
CN(C)S(=O)(=O)c1ccc(C(=O)NCc2ccc3[nH]c4c(c3c2)CCCC4)cc1 | -1.6 | -8.2 | -21.5 | -0.5 | 2.3% | i | 0.717 | -6.2 | -46.3
CO[C@@H]1CN(C)C(=O)c2cc(NC(=O)Nc3cccc(F)c3)ccc2OC[C@@H](C)NC[C@H]1C | x | -2.2 | -6.7 | -0.5 | x | i | x | 1.3 | x
O=C(NCCc1ccc(F)cc1)c1ccc(S(=O)(=O)N2CCCCC2)cc1 | 0.2 | 0.2 | 5.8 | -1.2 | -1.6% | i | 0.704 | -0.8 | x
CCOCCCNC(=O)c1ccc(NC(=O)C2CCCO2)cc1 (centres undefined) | 0.8 | 23.7 | 13.1 | 7.8 | -3.3% | i | 0.687 | -1.0 | 7.4
CS(=O)(=O)N1N=C(c2cccs2)CC1c1ccco1 (centres undefined) | 10.8 | 7.5 | 4.9 | 7.9 | 5.0% | i | 0.711 | -0.6 | 6.3
NC(=O)NC(Cc1ccccc1)C(=O)Nc1ccc(S(N)(=O)=O)cc1 (centres undefined) | -2.6 | x | x | x | 0.0% | x | 0.815 | x | x
C=CCSC1=N/C(=C\c2cc(OCC)c(OC(C)=O)c([N+](=O)[O-])c2)C(=O)S1 | -0.9 | x | x | x | x | x | 0.676 | x | 98.2*
COCC1CCN(Cc2c(C(=O)N3CCOCC3)nc3c(C)cccn23)C1 (centres undefined) | 3.2 | 13.5 | 13.9 | 1.3 | x | i | x | -0.2 | x
CN(Cc1ccccc1)C(=O)CC(c1ccccc1)c1cc(Cl)ccc1O (centres undefined) | -5.4 | x | x | x | -5.0% | x | 0.672 | x | -1.0
O=C(C[C@@H]1CC[C@@H](NC(=O)c2ccc3c(c2)OCO3)[C@H](CO)O1)NCc1ccc(Cl)cc1 | x | 0.1 | -0.4 | -1.1 | x | i | x | -1.3 | x
CC(C)(O)C#Cc1ccc(C(=O)NCCc2ccc(S(N)(=O)=O)cc2)cc1 | 1.4 | -3.9 | -0.4 | 5.0 | 10.8% | i | 0.696 | 0.2 | 6.0
Cc1ccc(/C(N)=N/OC(=O)N2CCOCC2)cc1 | -0.9 | 12.8 | -2.0 | 1.2 | -0.6% | x | 0.664 | x | -7.3
COc1ccc(Cl)cc1N1C(=O)c2cccnc2C1=O | 1.9 | 4.4 | 12.2 | 0.1 | 4.0% | i | 0.663 | -2.0 | x
C=CCn1c(SCC(=O)NCCCC(=O)OCC)nc2scc(-c3ccco3)c2c1=O | -7.4 | 13.2 | 8.4 | 2.7 | -13.0% | i | 0.694 | -0.5 | 74.0
O=C(O)c1ccc(N2C(=O)C3ON(c4ccccc4)C(c4ccccc4F)C3C2=O)cc1 (centres undefined) | -2.4 | x | x | x | 5.1%&0.7% | x | 0.793 | x | 7.5
CN(C)CC(=O)N1[C@@H](C#N)[C@H](c2ccc(-c3ccc(C(=O)N(C)C)cc3)cc2)[C@@H]1CO | x | 0.2 | -2.2 | -3.5 | x | i | x | 5.6 | x
Cc1ccc(C(=O)CC(C(=O)O)n2cccn2)cc1 (centres undefined) | 1.9 | x | x | x | 17.5% | x | 0.724 | x | 2.5
Cc1ccccc1CSc1ccc(S(=O)(=O)N2CCCC2)cn1 | 1.4 | 8.4 | -37.6 | -7.4 | -4.3% | i | 0.673 | -1.7 | 38.5
O=C(Cn1cnc2c(cnn2-c2ccc(Cl)cc2)c1=O)NCC1CCCO1 (centres undefined) | -1.6 | x | x | x | 14.1% | x | 0.703 | x | -4.3
O=C(COC(=O)c1cc2c(s1)CCCC2)Nc1ccc(Cl)cn1 | 2.8 | x | x | x | 27.9% | i | 0.683 | -2.1 | 7.1
C[C@@H]1CN([C@@H](C)CO)C(=O)Cc2cc(NS(=O)(=O)c3cn(C)cn3)ccc2O[C@H]1CN(C)Cc1ccccc1 | x | 2.5 | 12.9 | 1.2 | x | i | x | 0.2 | x
O=C(N/N=C/c1ccc([N+](=O)[O-])o1)c1cc(-c2cccc(Br)c2)nc2ccccc12 | 1.5 | x | x | x | 20.6% | x | x | x | -6.2
CCNS(=O)(=O)c1ccc(Br)c(C(=O)OC(C)C(=O)NCC2CCCCC2)c1 (centres undefined) | -1.5 | -2.1 | -1.2 | 2.6 | -9.8% | i | 0.675 | 8.7 | -1.4
C=CCn1c(SCC(=O)N2CCOCC2)nc2sc3c(c2c1=O)CCCC3 | -0.3 | x | x | x | 1.4% | x | 0.683 | x | -8.3
CC1CN(c2ncnc3c2cnn3-c2ccc(Cl)cc2)CC(C)O1 (centres undefined) | 0.5 | 7.3 | 10.0 | -1.5 | 3.4% | i | 0.737 | -6.1 | -1.8
CO[C@H]1CC[C@H]2CCOc3c(C#N)cccc3C(=O)N(C)CC3(CCCCC3)CC(=O)N(C)C[C@H]1O2 | x | 0.4 | 6.5 | -1.7 | x | i | x | -4.5 | x
CN(CCOc1ccccc1)C(=O)C1CCN(C(=O)c2ccc(F)cc2)CC1 | 2.0 | -0.8 | -3.8 | 0.3 | 2.8% | i | 0.719 | -1.9 | 2.1
FC(F)(F)c1ccc(-c2cccc3c2C2CC3CCN2C(=S)NCCc2ccccc2)cc1 (centres undefined) | -2.8 | 15.1 | 1.3 | -2.4 | x | i | x | -7.7 | x
Cc1nn(Cc2ccc(C(=O)NN)cc2)c(C)c1Cl | 1.1 | -11.4 | 7.4 | 1.6 | 1.7% | i | 0.684 | 1.5 | x
CCCCn1c(=NC(=O)c2ccco2)c(C(=O)OCC)cc2c(=O)n3ccccc3nc21 | -1.4 | x | x | x | 18.4% | x | 0.702 | x | x
O=C(Nc1ccc(Cl)cc1)ON=C1CCCC1 | -0.2 | -28.7 | -41.9 | 7.1 | x | i | 0.66 | 0.3 | 54.5
CC1CCCN(C(=O)CCS(=O)(=O)c2ccc3c(c2)NC(=O)C(C)S3)C1 (centres undefined) | -0.9 | x | x | x | x | x | 0.693 | x | -4.0
CN1/C(=C\C=C2/SC(=S)N(CC(=O)O)C2=O)C(C)(C)c2ccccc21 | -97.8 | 108.5 | -14.4 | 63.8 | x | i | 0.689 | 1.4 | 98.5*
CC1(C)Cc2c(sc3c2c(N)nc(=S)n3Cc2ccccc2)CO1 | x | 1.6 | 9.3 | -1.2 | -10.0% | i | 0.677 | 0.7 | -1.8
Cc1ccc(-c2cccc(-c3cc(=O)oc4ccc(C(C)(C)C)cc34)c2)cc1 | -2.2 | 16.6 | 22.1 | -1.6 | 2.0% | i | 0.727 | -3.4 | x
C[C@H](CO)N1C[C@H](C)[C@@H](CN(C)S(C)(=O)=O)OCc2ccccc2-c2c(n(C)c3ccccc23)C1=O | x | -1.9 | 5.3 | -2.3 | x | i | x | -1.8 | x
C[C@@H]1CN([C@@H](C)CO)C(=O)c2cc(NC(=O)Cc3ccccc3)ccc2O[C@@H](C)CCCCO[C@@H]1CN(C)C(=O)C1CCCCC1 | x | -1.3 | 2.9 | 1.1 | x | i | x | -0.2 | x
CCn1nc(C(=O)N2CCN(Cc3ccc4c(c3)OCO4)CC2)c2ccccc2c1=O | 0.0 | x | x | x | -2.1% | x | 0.656 | x | -9.4
COc1ccc(CCN(C(=O)C(F)(F)F)C(C(=O)NC2CCCC2)c2cccs2)cc1 (centres undefined) | 6.0 | x | x | x | 4.9% | x | 0.723 | x | -5.5
CN1C(=O)/C(=C/c2coc3ccc(O)cc3c2=O)SC1=S | 16.4 | 4.4 | 4.6 | 6.6 | 4.9% | i | 0.64 | -1.5 | -3.6
CCC(=O)n1nc(-c2ccc(Cl)cc2)nc1N | 0.3 | 6.7 | 4.0 | 1.0 | -1.2% | i | 0.636 | -3.2 | 3.0
CN1CCN(C(=O)C23CC4CC(C2)CC(c2ccccc2)(C4)C3)CC1 | -3.4 | 9.2 | -0.6 | 4.1 | -2.5% | i | 0.711 | -15.9 | -7.6

Quoted from the listing:
Result for `COc1ccc(CCN(C(=O)C(F)(F)F)C(C(=O)NC2CCCC2)c2cccs2)cc1` (centres undefined) in ALR inh: -5.5
Result for `C[C@@H]1CN([C@@H](C)CO)C(=O)c2cc(NC(=O)Cc3ccccc3)ccc2O[C@@H](C)CCCCO[C@@H]1CN(C)C(=O)C1CCCCC1` in rRNA inh HTS OD600: 2.9
